# TDP1 cell CPT: growth inhibition of DT40 Tdp1-/-;hTDP1 cells with camptothecin (screen for TDP1 inhibitors); chicken DT40 Tdp1-/-;hTDP1 cells + 20 nM CPT, ATP luminescence, 48 h; Potency, µM (top dose mostly 46.2 µM), for inactives: at the highest dose activity change, negative = growth inhibition, usual class: inhibitors; 420,000 tested, 12% active; also: nearly all actives have a fitted effect of over 55% in size
#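 Chicken DT40 Tdp1-/- cells complemented with human TDP1, 400 cells/well, exposed to compounds plus 20 nM camptothecin for at least 48 h at 37 C; viability read as ATP content by CellTiter-Glo luminescence.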
# KAT2A inh: inhibitors of human GCN5L2 histone acetyltransferase | Potency, µM (titrated, usually from 58.9 µM), without a hit: at the top dose activity change, negative = inhibition, hits mostly inhibitors | AID 504327 | GCN5L2 HAT assay, ThioGlo1 CoA-SH fluorescence | Q92830 | 390,000 tested, 0.21% active
# Target sequence (Q92830 whole entry, looked up): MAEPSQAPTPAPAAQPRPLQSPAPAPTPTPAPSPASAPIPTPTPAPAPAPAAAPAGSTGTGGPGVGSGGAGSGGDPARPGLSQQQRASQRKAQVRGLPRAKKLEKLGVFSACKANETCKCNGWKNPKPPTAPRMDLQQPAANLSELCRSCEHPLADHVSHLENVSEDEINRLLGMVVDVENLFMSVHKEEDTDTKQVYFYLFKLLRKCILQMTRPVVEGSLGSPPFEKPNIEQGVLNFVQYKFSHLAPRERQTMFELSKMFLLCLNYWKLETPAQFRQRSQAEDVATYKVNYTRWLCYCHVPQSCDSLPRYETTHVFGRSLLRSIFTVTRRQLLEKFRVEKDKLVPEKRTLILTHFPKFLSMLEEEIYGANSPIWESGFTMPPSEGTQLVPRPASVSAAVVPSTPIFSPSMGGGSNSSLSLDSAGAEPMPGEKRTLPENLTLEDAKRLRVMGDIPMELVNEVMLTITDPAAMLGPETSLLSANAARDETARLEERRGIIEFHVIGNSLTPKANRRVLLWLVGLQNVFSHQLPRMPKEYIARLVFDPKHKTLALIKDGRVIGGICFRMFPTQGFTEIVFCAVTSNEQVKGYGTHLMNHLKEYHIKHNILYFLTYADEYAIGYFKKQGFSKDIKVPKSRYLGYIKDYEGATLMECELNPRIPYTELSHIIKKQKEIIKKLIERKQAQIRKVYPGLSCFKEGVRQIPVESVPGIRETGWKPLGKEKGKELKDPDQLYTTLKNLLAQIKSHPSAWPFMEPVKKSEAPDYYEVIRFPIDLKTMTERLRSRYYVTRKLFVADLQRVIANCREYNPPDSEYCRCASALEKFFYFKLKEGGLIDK
#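 Free CoA generated was detected with ThioGlo1 (50uM) fluorescence at Ex340nm/Em540nm, read immediately and after 20 min at room temperature. Enzyme, 20 nM in HEPES pH 7.5 buffer, saw compounds 15 min before adding 75uM H3(1-25) peptide and 70uM acetyl-CoA.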
# An asterisk follows results filed as active; ? = inconclusive; / = not tested or not shown; & = joins results of further samples. Calls follow the shape of the dose curve; as a rule, active = well fitted curve in the direction sought with a large enough effect; inconclusive = small, poorly fitted or top-dose-only effect, or another doubt; inactive = no such curve, though single readings can be large; an effect the other way counts as inactive or inconclusive. % is scaled to controls: 0 for no effect and ±100 for the full control effect; potency is read from the fitted curve at half-maximal effect.
SMILES,TDP1 cell CPT,KAT2A inh
COc1cccc(-c2csc(NC(=O)C3CC3)n2)c1,5.2µM*,-10%
Cc1ccc(C)c(NS(=O)(=O)c2ccc(OCC(=O)NCc3ccccn3)cc2)c1,-5%,0%
CCN(CC)CCn1c2c(c(SCC(=O)Nc3ccccc3Cl)nc1=O)CCCC2,-20%,-4%
CCn1ncc(/C=C/C(=O)c2ccccc2)c1C,-8%,-6%
Cc1ccc(CNC(=O)CCCn2c(=O)c3ccccc3n(Cc3ccc(Cl)cc3)c2=O)cc1,-8%,-2%
Cc1ccc(C)n1-c1ccc(-n2cnnn2)cc1,-22%,2%
CCOc1ccc(NC(C)=O)cc1N,10%,-8%
Cc1ccc(C)c(NC(=O)CN(C)C(=O)c2oc3c(Cl)cccc3c2C)c1,?,-6%
CC(=O)Nc1ccc(S(=O)(=O)NCC2CCC(C(=O)NCCc3ccc(C)cc3)CC2)cc1 (stereo unspecified),-3%,?
COC(=O)c1cn(NC(=O)c2cc([N+](=O)[O-])ccc2F)c(=O)c2ccccc12,3.3µM*,4%
O=C(Cc1cccs1)Nc1ccc2c(c1)C(=O)OC2,-39%,-5%
CCn1ccc(C(=O)NC2=C(C#N)CCC2)n1,2%,0%
C[C@H](NC(=O)[C@@H]1CSC2c3ccccc3C(=O)N21)C(=O)NCCc1ccc(F)cc1 (stereo partly specified),-11%,-3%
COC(=O)[C@H]1C[C@@H]1[C@H](NC(=O)c1cnccn1)c1ccccc1,-9%,4%
Fc1cccc(NC(=S)N2CCn3cccc3C2c2cccnc2)c1 (stereo unspecified),4%,-9%
COC(=O)[C@@H](NC(=O)c1ccccc1OC1CCN(S(C)(=O)=O)CC1)C(C)C,-6%,-11%
CN(CC(=O)Nc1ccc(Cl)cc1)S(=O)(=O)c1cccc2cccnc12,?,-1%
Cc1cccc(C)c1OCC(=O)NC(Cc1c[nH]c2ccccc12)C(=O)O (stereo unspecified),5%&9%,-7%&11%
CC1(C)Cc2c(sc3c2c(=N)n(Cc2ccco2)c(=O)n3CC(=O)Nc2ccccc2)CO1,?,0%
Cc1nn(-c2ccccc2)c2c1c(C)c(CCC(=O)N1CCOCC1)c(=O)n2C,23µM*,0%
O=C(Cc1cc(C(=O)O)c2ccccc2n1)Nc1ccccc1,-14%,-5%
COc1ccc(C2/C=C\CN(C(=O)CC(C)(C)C)CC(=O)N2Cc2ccc(F)cc2)cc1 (stereo unspecified),?,-12%
CCOC(=O)c1c(-c2ccc(C)cc2)csc1NC(=O)c1cccc(N2C(=O)CCC2=O)c1,-4%,1%
COc1ccc(OCc2n[nH]c(=S)n2Cc2ccco2)cc1,-8%,-11%
COc1ccc(Nc2cc3n(c(=O)n2)CCc2cc(OC)c(OC)cc2-3)c(C)c1,?,-9%

# Next part
SMILES,TDP1 cell CPT,KAT2A inh
NC(=O)CC(NC(=O)Cc1ccc(Br)cc1)c1ccc(NC2CCN(Cc3ccccc3)CC2)c([N+](=O)[O-])c1 (stereo unspecified),-23%,-4%
CCCCN(C(=O)Cc1ccc2c(c1)OCCO2)c1c(N)n(CCC)c(=O)[nH]c1=O,0%,-2%
COc1ccccc1NC(=O)Cn1c(=O)n(Cc2ccco2)c(=O)c2cccnc21,?,3%
COc1ccc(C(=O)Nc2c(N)nc(SCC(=O)Nc3ccc(C(C)=O)cc3)[nH]c2=O)cc1,-4%,-6%
COC(=O)c1cc(N2CCNCC2)nc2ccccc12,?,-25%
Cc1ccc(S(=O)(=O)NCCc2csc3nc(-c4ccccc4F)nn23)cc1C,?,-23%
C#CCNC(=O)C1=C[C@@H](C2CC2)C[C@@H](OCCCCO)O1,4%,-6%
CCOc1ccccc1OCCCC(=O)NC1CCCc2ccccc21 (stereo unspecified),?,-3%
COc1ccccc1CNC(=O)CN(C)S(=O)(=O)c1cccc2cccnc12,-3%,-13%
O=C(Nc1ccc([N+](=O)[O-])cc1)c1ccc(Cn2cc([N+](=O)[O-])cn2)cc1,18µM*,-9%
O=c1nc2ccccc2c2n1CC(CN1CCN(c3ccc(F)cc3)CC1)N2 (stereo unspecified),1%,-12%
Cc1ccn2c(=O)nc(SCC(=O)c3ccc(Cl)cc3)nc2c1,?,-4%
NC(=O)CC(NC(=O)c1ccccc1)c1ccc(NCc2ccccn2)c([N+](=O)[O-])c1 (stereo unspecified),10%,-2%
CC(=O)c1ccc2cccc3c2c1N=CN3C,-4%,-12%
Cc1cc(C)cc(N(CC(=O)N2CCOCC2)S(=O)(=O)c2ccccc2)c1,7%,3%
COc1ccc(C2OC[C@H]3O[C@H](O)[C@H](NC(C)=O)[C@@H](O)[C@@H]3O2)cc1 (stereo partly specified),4%,-1%
Cc1nc(N2CCOCC2)sc1C=O,2%,1%
COc1cccc2cc(C(=O)NCCN3CCOCC3)c(=O)oc12,-4%,?
Cc1ccc(NC(=O)NCc2cccnc2)cc1Cl,0%,-2%
O=C(CN1CCCN(Cc2ccc(F)cc2Cl)C1=O)NC1CCCCCCC1,?,1%
CCOc1ccc(C(=O)/C=C/c2ccccc2C(F)(F)F)cc1,-23%,1%
Cc1c(C(=O)Nc2ccc(S(=O)(=O)NCC3CCCO3)cc2)cccc1[N+](=O)[O-] (stereo unspecified),?,-2%
CCOc1ccc(N(CC(=O)NCc2ccc(Cl)cc2)S(=O)(=O)c2c(C)noc2C)cc1,?,4%&-2%
Cc1ccc(N2CC(C(=O)O)CC2=O)cc1 (stereo unspecified),15%,1%
COc1ccc(/C(O)=C2\C(=O)C(=O)N(CCN3CCOCC3)C2c2ccccc2OC)cc1 (stereo unspecified),-7%,20%

# Part of the list above in order of heavy-atom count, largest number first:
SMILES,TDP1 cell CPT,KAT2A inh
CCOc1ccc(N(CC(=O)NCc2ccc(Cl)cc2)S(=O)(=O)c2c(C)noc2C)cc1,?,4%&-2%
COC(=O)c1cn(NC(=O)c2cc([N+](=O)[O-])ccc2F)c(=O)c2ccccc12,3.3µM*,4%
Cc1cc(C)cc(N(CC(=O)N2CCOCC2)S(=O)(=O)c2ccccc2)c1,7%,3%
CN(CC(=O)Nc1ccc(Cl)cc1)S(=O)(=O)c1cccc2cccnc12,?,-1%
COC(=O)[C@H]1C[C@@H]1[C@H](NC(=O)c1cnccn1)c1ccccc1,-9%,4%
Cc1ccc(NC(=O)NCc2cccnc2)cc1Cl,0%,-2%
CCn1ncc(/C=C/C(=O)c2ccccc2)c1C,-8%,-6%

# Later entries
SMILES,TDP1 cell CPT,KAT2A inh
Cc1cc(C)cc(NC(=O)Cn2cnc3c(nnn3Cc3ccc(F)cc3)c2=O)c1,-5%,1%
CCOC(=O)N1CCN(C(=O)c2ccc(CN(c3ccccc3)S(C)(=O)=O)cc2)CC1,-19%,-4%
CC(C)=CCN1CCN(CCCn2cccn2)CC1CCO (stereo unspecified),-12%,-7%
c1ccc(C(c2ccccc2)c2ccn[nH]2)cc1,-30%,-19%
O=C(O)CCC(NC(=O)OCc1ccccc1)C(=O)O (stereo unspecified),0%,-1%
COc1ccc(NC(=O)CN(C)S(=O)(=O)c2cnc[nH]2)cc1,6%&0%,2%&4%
O=[N+]([O-])c1cccc(/C=N/n2cnnc2)c1O,4%,-4%
CCN(CCCNC(=O)CSc1cc(=O)n(C)c2cc(Cl)ccc12)Cc1ccccc1,-4%,-3%
O=C(c1ccccc1NS(=O)(=O)c1ccc(F)cc1)N1CCCC1,-11%,-4%
CC(C)CCOc1ccc(C(=O)NNC(=O)CNC(=O)c2ccccc2F)cc1,1%,-1%
COc1ccc(N2CCN(C(=O)CSc3nnnn3-c3ccc4c(c3)OCCO4)CC2)cc1,?,-10%
CC(=O)Nc1ccc(NC(=O)C(C)O/N=C/c2cccc([N+](=O)[O-])c2)cc1 (stereo unspecified),-26%,3%
Cc1noc(C(=O)Nc2cc(Cl)ccc2O)c1Cl,10%,-1%
CCOc1cccc(OCCOCCN(C)C)c1,-2%,-3%
CCn1nccc1C(=O)Nc1ccc(Cl)c(Cl)c1,-28%,-1%
CCC(C)(C)NC(=O)CN(C(=O)CCC(=O)Nc1cc(C)ccn1)c1ccc2c(c1)OCCO2,4%,1%
CCOC(=O)c1c(NC(=O)CSc2nnc(C)s2)sc2c1CCC(CC)C2 (stereo unspecified),-20%,-13%
CCN1C(=O)C(CC(=O)NCCc2ccccc2)N(NC(=O)c2cccnc2)C1=S (stereo unspecified),4%,0%
CCCCN(C(=O)CCCc1nc2ccccc2c(=O)[nH]1)c1c(N)n(CC(C)C)c(=O)[nH]c1=O,-6%,-6%
CCOC(=O)C1CCCN(C(=O)Cn2nc(Cc3cccnc3)c3ccccc3c2=O)C1 (stereo unspecified),8%,-19%
NC(=O)COc1ccc(/C=N/NS(=O)(=O)c2ccccc2)cc1,1%,1%
CCOC(=O)c1cnc2c(Cl)c(Cl)ccc2c1NCCN1CCOCC1,?,3%&-4%
CCOc1ccc(CC(=O)NC2CC(=O)N(c3cccc(F)c3)C2)cc1 (stereo unspecified),5%,-4%
O=C(CSc1nncn1-c1ccccc1)Nc1c(F)cccc1F,3%,2%
CCCCC(CC)C(=O)NCC(C)NC(=O)C(CC)CCCC (stereo unspecified),-14%,-1%

# In the list so far, two have two or more sulfur atoms.
SMILES,TDP1 cell CPT,KAT2A inh
Cc1ccc(S(=O)(=O)NCCc2csc3nc(-c4ccccc4F)nn23)cc1C,?,-23%
CCOC(=O)c1c(NC(=O)CSc2nnc(C)s2)sc2c1CCC(CC)C2 (stereo unspecified),-20%,-13%

# Returning to the listing, repeating the 2 entries before the break.
SMILES,TDP1 cell CPT,KAT2A inh
O=C(CSc1nncn1-c1ccccc1)Nc1c(F)cccc1F,3%,2%
CCCCC(CC)C(=O)NCC(C)NC(=O)C(CC)CCCC (stereo unspecified),-14%,-1%
CCCNC(=O)N1CCN(S(=O)(=O)c2ccc3c(c2)OCCO3)CC1,-9%,-9%
Cc1nn(-c2ccc(N3CCCC3)nn2)c(C)c1CCC(=O)NCc1ccccc1,-20%,4%
Cc1ccccc1CSc1nnc(-c2ccncc2)n1C,12%,6%
O=C(NC1CCCCC1)C(=S)N1CCCC1,-10%,2%
CCC(=O)N1c2ccccc2C(N(C(=O)CC)c2ccccc2)CC1C (stereo unspecified),?,-3%
CC(=O)Nc1ccc(OS(=O)(=O)c2ccc(Cl)cc2)cc1,-8%,-4%
CCOC(=O)c1cc(-c2ccccc2)sc1NC(=O)C(C)Sc1nnc(N)s1 (stereo unspecified),?,-16%
Cn1c(=O)[nH]c(=O)c2c1nc(NCCCn1ccnc1)n2CCOc1ccccc1,-25%,-3%
COc1cccc(C(=O)Nn2cnnc2)c1,2%,1%
COc1ccc(C2CC(C(F)(F)F)n3nc(C(N)=O)c(Cl)c3N2)cc1OC (stereo unspecified),-27%,0%
O=C(O)c1ccccc1NC(=S)NC(=O)c1cccc2ccccc12,-6%,1%
Cc1ccc2c(=O)cc(C(=O)Nc3ccc(S(=O)(=O)N4CCCC(C)C4)cc3)oc2c1C (stereo unspecified),?,-2%
O=C(COC(=O)C1CC1)NCCc1ccccc1,-21%,2%
COC(=O)c1ccc(CN2CCN(C3CCCC3)C(CCO)C2)cc1 (stereo unspecified),0%,-10%
O=C(CC1C(=O)NCCN1Cc1cccc(C(F)(F)F)c1)NC1CCCCCC1 (stereo unspecified),-4%,-8%
COc1ccc(/C=N/NC(=O)CCCC(=O)NC2CCCCC2)cc1,-3%,-4%
CCN(C(=O)CSc1nnc(-c2c[nH]c3ccccc23)o1)C1CCS(=O)(=O)C1 (stereo unspecified),-18%,0%
Cc1nn(C)cc1CN(C)Cc1c(C(=O)N(C)Cc2ccccc2)nc2ccccn12,?,0%
CCS(=O)(=O)c1ccc(NC(=O)c2ccccc2Cl)c(O)c1,-27%,-25%
Cc1ccc(NC(=O)CN2C(=O)NC(Cc3c[nH]c4ccccc34)C2=O)cc1S(=O)(=O)N1CCCCC1 (stereo unspecified),21µM*,-11%
CC(C)(C)C(=O)Nc1ccc(N2CCN(c3ccc(C(F)(F)F)cn3)CC2)nc1,?,1%
COc1ccc2c(C(=O)c3ccc(Cl)cc3)n(CCCC(N)=O)[n+]([O-])c2c1,-10%,-5%
COc1ccc(C(=O)Nc2ccnn2C2CCN(CC3CC=CCC3)CC2)cc1 (stereo unspecified),-11%,-9%
Cc1cccn2c(=O)c3cc(C(=O)NC4CCCC4)c(=N)n(C4CCCCC4)c3nc12,-14%,0%
CSc1nc(C)cc(-n2cc(F)c(=O)[nH]c2=O)n1,-2%,3%

# Other records:
SMILES,TDP1 cell CPT,KAT2A inh
Cc1nc(NCCc2ccccc2)sc1C(=O)O,1%,-7%
Cc1cc(=O)oc2cc(OCC(=O)N(C)C3CCS(=O)(=O)C3)c(Cl)cc12 (stereo unspecified),6%,-8%
CCOC(=O)/C(=C\C=C1/Sc2ccccc2N1CC)C(C)=O,?,-2%
CNC(=O)c1ccc(-c2nc(-c3ccccc3)cs2)cc1,2%,5%
O=C(Nc1nnc(CCS(=O)(=O)c2ccc3ccccc3c2)s1)c1ccc([N+](=O)[O-])cc1,-21%,2%
COc1ccc(-c2[nH]ncc2CN2C[C@@H]3CCC[C@H]2C3)c(F)c1,3%,9%
Cc1ccc(S(=O)(=O)N(C)C)cc1NC(=O)c1ccncc1,-2%,-3%
Cc1nc2ccc(S(=O)(=O)Nc3cc(-c4nc5cccnc5s4)ccc3C)cc2s1,?,-22%
O=C(CNC(=O)c1ccc(Cl)cc1)c1ccccc1,13%,/

# Assay outcomes: PubChem BioAssay, National Center for Advancing Translational Sciences (NCATS)

# These rows are one share of the data; most or all hits stand in other tables.
